Assay outcomes from PubChem BioAssay.
gsp antagonist = qHTS for Antagonists of gsp, the Etiologic Mutation Responsible for Fibrous Dysplasia/McCune-Albright Syndrome: qHTS. Potency, µM (doses to about 76.9 µM), inactives show at the top dose activity change, negative = inhibition, actives largely listed as inhibitors. AID 624288, 2012. 340,000 compounds, 0.4% hits. gsp-mutant cells, cAMP HTRF, 30 min; control for the full effect not named in the record; active = falling curve of any shape with a large fitted effect; inconclusive = falling curve, mostly with a smaller effect; inactive = flat or rising curve; cell line not stated here;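 further: intracellular cAMP measured with PDE inhibitor Ro 20-1724 present during compound exposure; potency means the concentration at half of the fitted maximal effect; on the % scale 0 is the no-effect control and ±100 the full control effect; nearly all actives have a fitted effect of over 65% in size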
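G418-selected cells were plated in DMEM/10% FBS for 16-24 h at 37C, then treated with compounds plus the PDE inhibitor […] (300 uM solution added) for 30 min at 37C. Intracellular cAMP was measured by HTRF after 30 min lysis at room temperature.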
CtBP-E1A blk = qHTS Assay for Inhibitors of the CtBP/E1A Interaction | CtBP / adenovirus E1A interaction (AlphaScreen) | AlphaScreen GST-E1A/His-CtBP binding, 1536-well; hits give low values; control for the full effect not named in the record | activity change, % (concentration not given with the values) | 340,000 compounds, 0.49% hits | AID 651724, 2012; in the data active means activity change below about -65%; inconclusive means about -30% to -65%; inactive means above about -30%; further: on the % scale 0 is the no-effect control and ±100 the full control effect
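GST-E1A and His-tagged CtBP (125 nM each as 5X stock) were preincubated with pin-transferred compound for 2 h at 37 °C in the dark, then glutathione donor and nickel acceptor beads were added for 1 h before AlphaScreen reading.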
D2 potentiator = Beta-Arrestin HTS for Positive Allosteric Modulators of the Human D2 Dopamine Receptor: Potentiators; DiscoveRx D2 beta-arrestin cells, luminescence, 90 min; 100% = 57 uM dopamine signal; 360,000 compounds, 0.23% hits; AID 624464, 2012; D(2) dopamine receptor (Homo sapiens), P14416; potentiation, % (concentration not given with the values); active = potentiation of 50% or more; inconclusive = 30% to 50%; inactive = 30% or less;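 further: tested on top of an EC20 dose of dopamine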
Target sequence (P14416 whole entry, looked up): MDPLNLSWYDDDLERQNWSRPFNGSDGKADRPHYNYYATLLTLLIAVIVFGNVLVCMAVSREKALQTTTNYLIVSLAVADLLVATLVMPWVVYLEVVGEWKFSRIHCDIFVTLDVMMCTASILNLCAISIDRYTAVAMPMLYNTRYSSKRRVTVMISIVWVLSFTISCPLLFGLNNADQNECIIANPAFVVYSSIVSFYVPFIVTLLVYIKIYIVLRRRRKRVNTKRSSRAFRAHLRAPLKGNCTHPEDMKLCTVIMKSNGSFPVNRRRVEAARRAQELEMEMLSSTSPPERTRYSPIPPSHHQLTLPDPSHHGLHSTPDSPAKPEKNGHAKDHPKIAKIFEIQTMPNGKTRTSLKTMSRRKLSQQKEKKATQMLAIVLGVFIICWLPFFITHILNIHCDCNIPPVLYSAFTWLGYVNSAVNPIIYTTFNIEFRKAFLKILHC
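PathHunter D2 cells, attached overnight at 37 deg C, received compound in DMSO plus dopamine at EC20 (50 nM final) for 90 min at 37 deg C. Beta-arrestin recruitment was read as luminescence after 1 h with detection reagent at ambient temperature.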
D2 ag = Beta-Arrestin HTS for Positive Allosteric Modulators of the Human D2 Dopamine Receptor: Agonists | DiscoveRx PathHunter D2 beta-arrestin, luminescence, 90 min; 100% = 57 uM dopamine signal | activation, % (no concentration beside the values) | 360,000 compounds, 0.084% hits | AID 624465, 2012; in the data active = activation above about 40%; inconclusive = about 15% to 40%; inactive = below about 15%; further: compound concentration not given in the record; the text of the record calls up to 30% inactive
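DiscoveRx PathHunter D2 beta-arrestin cells (2,100/well) attached overnight, then compound-stimulated 90 min at 37 C in HBSS/10 mM HEPES/0.1% Tween-20 buffer; beta-galactosidase complementation read by luminescence after 1 h at ambient temperature. Dopamine 57 uM final (EC100) as control.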
gsp ag = qHTS for Agonist of gsp, the Etiologic Mutation Responsible for Fibrous Dysplasia/McCune-Albright Syndrome: qHTS. gsp mutant cells, cAMP HTRF, 30 min; control for the full effect not named in the record. Potency, µM (titrated, usually from 76.9 µM), for inactives: at the top dose activation (cAMP increase), usual class: activators. 340,000 compounds, 0.13% hits. AID 624287, 2012; active = well fitted activation curve with a large enough effect; inconclusive = small, poorly fitted or top-dose-only effect, or another doubt; inactive = no such curve, though single readings can be large or run the other way; cell line not stated here;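 further: phosphodiesterase inhibitor Ro 20-1724 added with compounds to block cAMP breakdown; potency means the concentration at half of the fitted maximal effect; nearly all actives have a fitted effect of over 60% in size; about a fifth of the inactives were tested at one dose only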
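Cells in DMEM/10% FBS with G418 were pretreated with compounds in DMSO plus […] (300 uM stock) for 30 min at 37C. cAMP was measured by HTRF (cAMP-d2 plus anti-cAMP antibody-K) after 30 min at room temperature.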
Six1-Eya2 blk = qHTS Assay for Inhibitors of the Six1/Eya2 Interaction. Homeobox protein SIX1 (Homo sapiens) + Protein phosphatase EYA2 (Homo sapiens), …. AlphaScreen GST-Six1/His-Eya2 binding, biochemical; hits give low values; control for the full effect not named in the record. activity change, % (no concentration beside the values). 360,000 compounds, 0.56% hits. AID 651725, 2012; in the data active = activity change below about -65%; inconclusive = about -30% to -65%; inactive = above about -30%; further: on the % scale 0 is the no-effect control and ±100 the full control effect
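AlphaScreen luminescence read after one hour at 37 °C in darkness. Pin-transferred compounds met GST-Six1 and His-Eya2 protein (5X stock 250 nM/500 nM) plus glutathione donor and Ni-chelate acceptor beads (5X, 50 ug/mL).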
* hit, by the source's call; ? = inconclusive; . = not tested or not shown; [ ] = another dose, or the depositor's remark.

SMILES	gsp antagonist	CtBP-E1A blk	D2 potentiator	D2 ag	gsp ag	Six1-Eya2 blk
N#CC1(c2c(O)nc3n(c2=O)CCCS3)CCCCC1	-14.6%	-24.0	-7.3	-0.5	-57.3%[inhibitor]	-0.7
C=CCNC(=O)CSc1nc2sc3c(c2c(=O)n1CCC)CCC3	-5.0%	1.2	-5.0	-1.4	13.6%[15.4 µM]	-1.2
COc1cc(/C=N/Nc2ccc(Cl)nn2)cc(OC)c1O	3.8%	?	9.7	?	4.1%	?
O=C(CN(C(=O)CNC(=O)c1ccco1)c1ccc2c(c1)OCCO2)NC1CCCC1	6.8%	.	-5.4	-4.6	-14.1%	11.6
Cc1ccc(C)c(NS(=O)(=O)c2ccc(NC(=O)c3ccco3)cc2)c1	-20.2%	3.6	12.9	1.3	17.0%	-3.1
O=C(NCCOc1nc(N2CCCCC2)nc(N2CCOCC2)n1)Nc1ccccc1	-5.4%	4.7	-5.4	-0.1	-7.0%	4.2
CCOc1ccc(OCC)c(S(=O)(=O)NCc2cccnc2)c1	5.4%	1.6	-6.4	-2.2	?	26.6
CCOCc1nnc(NC(=O)c2cccc(OC)c2)s1	-4.4%	12.5	-6.5	-3.1	-21.0%	2.2
CN(C)S(=O)(=O)c1cccc(NC(=S)NNC(=O)c2cc3ccccc3cc2O)c1	-34.5%	?	-5.8	-6.8	27.1%[15.4 µM]	?
Cc1ccc(NC(=O)c2ccccn2)cc1S(=O)(=O)N1CCOCC1	11.1%	-1.4	-12.7	0.2	-27.8%[15.4 µM]	-0.5
CC(NC(=O)c1cc2ccccc2o1)C(=O)O (stereo not drawn)	3.5%	2.2	-4.9	-0.7	0.5%	7.6
CCN(C(=O)c1ccco1)c1nc(CC(=O)Nc2ccc(Cl)cc2)cs1	-17.4%	-24.6	-13.9	0.1	-19.7%	-25.0
COc1ccc(CC(=O)NC2CC(C)(C)NC(C)(C)C2)cc1	4.1%	-1.0	-4.1	-0.4	0.0%	-1.7
CC1(C(=O)O)CCN1C(=O)c1cccc(C(F)(F)F)c1 (stereo not drawn)	.	6.0	-4.9	-2.4	.	7.0
Cc1ccnc2nc(C(=O)N3CCN(c4ccc(F)cc4)CC3)nn12	9.0%	14.1	?	-2.5	18.7%	-0.4
COc1ccc(NC(=O)CCN2CCN(S(=O)(=O)c3ccc(Cl)cc3)CC2)cc1	-2.5%	5.9	-0.5	0.7	-49.7%	2.1
O=c1c(Cc2ccc(Cl)cc2)c(O)ccn1Cc1cccs1	5.5%	0.0	-5.4	-3.7	-20.2%	-3.4
O=C(c1cn2ccccc2n1)N1CCc2c([nH]c3ccccc23)C1c1ccccn1 (stereo not drawn)	6.4%	5.4	-21.3	3.0	5.1%[15.4 µM]	6.6
CCc1nnc(NC(=O)CSc2nncc(=O)n2N)s1	-14.9%	?	-11.6	-2.3	28.7%	-17.0
COc1ccccc1N1CCN(S(=O)(=O)c2ccc3c(c2)NC(=O)CS3)CC1	-0.8%	.	-10.5	0.7	?	-9.9

Overlap with the part before: three entries, then new ones.
SMILES	gsp antagonist	CtBP-E1A blk	D2 potentiator	D2 ag	gsp ag	Six1-Eya2 blk
O=C(c1cn2ccccc2n1)N1CCc2c([nH]c3ccccc23)C1c1ccccn1 (stereo not drawn)	6.4%	5.4	-21.3	3.0	5.1%[15.4 µM]	6.6
CCc1nnc(NC(=O)CSc2nncc(=O)n2N)s1	-14.9%	?	-11.6	-2.3	28.7%	-17.0
COc1ccccc1N1CCN(S(=O)(=O)c2ccc3c(c2)NC(=O)CS3)CC1	-0.8%	.	-10.5	0.7	?	-9.9
CCn1c(/C=N/n2cnnc2)nc2ccccc21	1.4%	-5.8	-4.5	0.0	12.5%	-0.3
Cc1ccc(S(=O)(=O)NCc2ccc(C(=O)NC3CCC(O)CC3)cc2)cc1C (stereo not drawn)	?	2.9	-0.2	-1.2	-22.9%	0.8
N=c1sccn1CC(=O)Nc1ccccc1Cc1ccccc1	11.4%	-3.7	-10.8	-3.7	-29.2%	-0.4
CN(Cc1ccccc1F)C(=O)c1ccc(Oc2ccccc2)cc1	-27.0%	17.9	-10.2	-0.6	18.6%	8.6
CC(=O)Oc1ccc(Cn2c(C)c(C(=O)NCc3ccc4c(c3)OCCO4)sc2=O)cc1	.	0.5	2.5	9.2	.	-9.7
Cn1nc(C(F)(F)F)c(C(=O)Nc2cccc(Cl)c2)c1Cl	-2.9%	-1.9	-8.0	-2.7	17.1%	8.4
CN(Cc1cnn(C)c1)C(=O)c1ccc(OC2CCN(CCc3ccccc3)CC2)cc1	10.1%	-11.3	-5.2	-5.9	-73.9%[inhibitor]	-20.3
Cc1cc(-c2nn(-c3ccccc3F)cc2CN(C)CC(O)CO)c(C)s1 (stereo not drawn)	7.8%	-7.5	-7.0	-1.9	-8.5%	-14.3
Cn1c(N/N=C/c2cccs2)nc2c1c(=O)n(Cc1ccccc1)c(=O)n2C	-15.5%	?	28.4	9.4	?	?
CCCc1nnc(NC(=O)C2CCN(C(=O)c3ccco3)CC2)s1	-5.7%	-1.1	-0.9	-3.2	14.1%	-3.8
COC(=O)c1ccccc1C(=O)N1CCCC(C(=O)c2ccc(OC)c(OC)c2)C1 (stereo not drawn)	-10.0%	5.9	-6.9	0.2	?	2.2
O=C(Nc1ccc(N2CCOCC2)cc1)c1ccc2c(c1)OCO2	-2.4%	0.0	-9.7	-4.5	24.0%[15.4 µM]	5.5
O=C(NNC1=C(C(=O)C(F)(F)F)CCC1)c1cccc(O)c1	0.4%	-10.6	-0.9	-1.1	-42.1%[inhibitor]	-12.0
CCOc1ccc(CCNC(=O)COC(=O)CSc2ccc(C)cc2)cc1OCC	-6.0%	1.2	-13.6	0.6	9.1%	-0.3
Cc1cc2nc(-c3ccc(SCc4ccc(C(=O)O)cc4)nc3)[nH]c2cc1C	-7.5%	-23.8	0.5	-2.4	-17.8%[15.4 µM]	?
O=C(NCC1CCCO1)C(c1ccc(F)cc1)N(CC1CCCO1)C(=O)c1ccc(-c2ccccc2)[nH]1 (stereo not drawn)	3.0%	-12.8	-10.7	-2.3	5.7%	-0.9
CC1(C)CC(=O)C(N=Nc2ccc(Cl)cc2)=C(O)C1	8.7%	-2.5	-12.6	-1.3	-12.2%	-4.2
Cc1cc[n+](-c2nc3ccccc3nc2[N-]S(=O)(=O)c2cccs2)cc1C	5.0%	-7.8	4.4	-2.4	2.1%	43.7
COc1ccc(CN2CCCC(C(=O)Nc3cccc(-n4cccn4)c3)C2)cc1 (stereo not drawn)	-1.6%	0.8	-32.5	-1.1	8.0%	-0.9
Cc1ccc(C)c(OCCCCCn2ccnc2)c1	-3.4%	-14.9	4.0	3.1	-36.0%[inhibitor]	-2.9

Pulled by structure from the list above (4):
SMILES	gsp antagonist	CtBP-E1A blk	D2 potentiator	D2 ag	gsp ag	Six1-Eya2 blk
N=c1sccn1CC(=O)Nc1ccccc1Cc1ccccc1	11.4%	-3.7	-10.8	-3.7	-29.2%	-0.4
Cc1cc(-c2nn(-c3ccccc3F)cc2CN(C)CC(O)CO)c(C)s1 (stereo not drawn)	7.8%	-7.5	-7.0	-1.9	-8.5%	-14.3
Cc1ccc(C)c(OCCCCCn2ccnc2)c1	-3.4%	-14.9	4.0	3.1	-36.0%[inhibitor]	-2.9
CCOc1ccc(CCNC(=O)COC(=O)CSc2ccc(C)cc2)cc1OCC	-6.0%	1.2	-13.6	0.6	9.1%	-0.3

(list continues)
SMILES	gsp antagonist	CtBP-E1A blk	D2 potentiator	D2 ag	gsp ag	Six1-Eya2 blk
COc1ccc(CCNC(=O)c2ccc(F)c(S(=O)(=O)N3CCCCC3)c2)cc1	.	-2.1	-15.8	1.2	4.6%	-5.9
NC(=O)COC(=O)c1cc(S(=O)(=O)N2CCOCC2)ccc1N1CCCCC1	-15.7%	4.0	-9.2	5.5	-42.8%[inhibitor]	-23.9
C/C(=N\NC(=O)Cn1c(-c2ccccn2)nc2ccccc21)c1ccccc1	-23.7%	1.5	-5.4	-3.3	2.7%[15.4 µM]	-24.2
N#Cc1nc(-c2ccc([N+](=O)[O-])cc2)oc1N1CCCCC1	3.7%	9.8	-3.1	-0.7	-2.6%	6.9
Cn1nccc1C(=O)NC1CCCc2c1cnn2-c1ccc(F)cc1F (stereo not drawn)	-6.0%	-2.7	-5.4	3.4	-17.1%[15.4 µM]	-8.5
CN(CC(O)COCc1ccc2c(c1)OCO2)C1CCCCC1 (stereo not drawn)	14.4%	0.1	-1.6	-0.6	?	8.4
Nc1nonc1C(=O)NCCNCc1cc(Br)ccc1OCc1ccc(F)cc1	?	-12.5	-42.7	0.1	-7.5%	-5.5
CC(C)Oc1ccc(S(=O)(=O)N2CCCCC2)cc1NC(=O)CC1OC(=O)c2ccccc21 (stereo not drawn)	-8.4%	-6.2	1.4	-3.8	5.8%[15.4 µM]	-0.2
Cc1ccccc1NS(=O)(=O)c1cc2c3c(c1)CC(=O)N3CCC2	?	1.2	-3.9	-1.6	?	4.9
Clc1ccc(-c2nc(N3CCCCC3)nc3ccccc23)cc1	-3.0%	85.1	-13.0	-3.0	19.4%	110.3
COc1cc(C2C3C(=O)N(c4ccccc4)C(=O)C3ON2c2ccccc2)ccc1O (stereo not drawn)	-3.5%	5.5	22.0	2.9	?	-2.1
CN(C(=O)c1ccc(NC(=O)C2CCCN(C(=O)OC(C)(C)C)C2)cc1)C1CC1 (stereo not drawn)	-4.4%	.	-11.9	-2.2	?	5.1
O=C(Nc1ccc2c(c1)OCCO2)c1ccc(Cl)cc1Cl	-9.4%	-3.7	-6.1	5.8	-65.7%[inhibitor]	3.0
COc1ccc(S(=O)(=O)N2CCC(C(=O)N[C@@H](C)C(=O)N3CCCC3)CC2)cc1	.	-6.3	-5.6	-2.2	24.1%	-0.7
COc1cc(/C=C(/C#N)C(=O)NCc2ccccc2)cc(OC)c1OC	4.0%	.	-47.0	0.8	18.0%	8.4
COc1cc(CNC(=O)CCCCCCC(C)C)ccc1O	-16.7%	3.7	2.8	1.3	.	-0.2
